Rce1 inhib: yeast Rce1p protease inhibitors, primary screen, biochemical, fluorescence, cell-free homogeneous; CAAX prenyl protease 2 (Saccharomyces cerevisiae (strain ATCC 204508 / S288c)), Q03530; yeast membranes, quenched prenylated peptide cleavage fluorescence; calls only; 290,000 tested, 0.27% active; AID 2563, 2010;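 active means fall in fluorescence gain of 50% or more versus controls, with final raw signal at or below 3038400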;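 further: plate controls were neutral control wells for no effect and wells lacking membranes for full effect; tested at 10 µM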
CSC inhib: cancer stem cell viability inhibitors, primary screen, luminescence. cancer stem cell-like cells viability. inhibition, % at 7.5 µM. 300,000 tested, 1.1% active. AID 2717, 2010;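 active means mean at 75% or more and at least half the replicates too; tested in HMLE shEcad cells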;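 further: 0% = median of negative and 100% = median of positive control wells; the first replicate is given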
PABP polyA inh: PABP poly(A) RNA binding inhibitors, primary screen, biochemical, fluorescence polarization, uHTS; Polyadenylate-binding protein 1 (Homo sapiens), P11940; 290,000 tested, 1% active; inhibition, % at 35 µM;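 active means 50% or more with normal probe brightness, or confirmed in later tests; about a fifth of its hits are not listed in these tables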;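 further: calls also rest on retests at 20 µM and on dose response follow-up; controls were probe without protein and protein plus probe with vehicle; some compounds called inactive have numbers as strong as hits; many hits fall short of the cut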
Target sequence (P11940 whole entry, looked up): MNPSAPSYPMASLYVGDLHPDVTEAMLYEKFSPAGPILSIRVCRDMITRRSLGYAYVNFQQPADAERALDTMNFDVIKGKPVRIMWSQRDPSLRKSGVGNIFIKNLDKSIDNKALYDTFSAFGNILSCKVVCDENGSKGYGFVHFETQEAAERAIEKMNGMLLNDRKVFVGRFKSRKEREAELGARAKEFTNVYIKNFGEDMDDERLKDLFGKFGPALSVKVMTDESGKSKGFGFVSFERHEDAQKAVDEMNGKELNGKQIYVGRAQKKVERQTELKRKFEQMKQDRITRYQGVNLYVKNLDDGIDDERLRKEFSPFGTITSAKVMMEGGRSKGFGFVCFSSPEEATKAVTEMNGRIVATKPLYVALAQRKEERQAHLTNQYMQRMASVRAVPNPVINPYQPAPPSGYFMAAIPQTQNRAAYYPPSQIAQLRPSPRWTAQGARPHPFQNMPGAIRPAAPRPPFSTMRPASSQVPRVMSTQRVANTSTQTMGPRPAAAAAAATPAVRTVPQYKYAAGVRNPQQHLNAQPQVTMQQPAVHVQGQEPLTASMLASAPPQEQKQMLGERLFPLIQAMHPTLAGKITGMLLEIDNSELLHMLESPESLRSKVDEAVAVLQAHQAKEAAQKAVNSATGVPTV
Yeast UUG start: modulators of yeast start codon fidelity, primary screen, whole organism, S. cerevisiae, single point, plate reader; AID 602363, 2012; activity score, % at 18.7 µM; S. cerevisiae UUG-firefly luciferase reporter, luminescence/redox ratio; 350,000 tested, 0.13% active;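 active means replicate mean at a twofold rise or more, about +100% in these data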;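 further: firefly luciferase made from a UUG start codon reports start codon fidelity; reporter light over untreated wells divided by growth signal over untreated wells; some hits fall short of that in this replicate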
HIV Env fusion: inhibitors of HIV-1 Env-driven cell-cell fusion, primary screen, HeLa-JRFL effector, CEM21 target cells, luciferase. 360,000 tested, 1.1% active. inhibition, % at 12.3 µM. AID 651610, 2012;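 active means mean replicate inhibition score of at least 50 and every replicate individually at or above 50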;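 further: 0% = plate neutral controls and 100% = maraviroc near 300 nM; one replicate is shown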
MT1-MMP act inh: blockers of MT1-MMP proenzyme processing, primary screen, HT1080 RFP-PRO-GFP cells, GFP/RFP fluorescence; GFP/RFP ratio change, % at 20 µM; GFP/RFP ratio fluorescence, overnight; percent of plate control window, DMSO zero; 360,000 tested, 0.061% active;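 active means GFP/RFP ratio change of at least 30% with cell ATP level not reduced by more than half and red fluorescence within 50% of control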; further: strong numbers were not always called active
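Assay system: HT1080 cells carrying an RFP-PRO-GFP reporter | Dosing: Single dose of 20 µM compound, 1% DMSO final | Incubation: Cells overnight before dosing, compound overnight, 37 °C, 5% CO2 | Evaluation: GFP/RFP fluorescence ratio | Control set: DMSO and RFP-L50D-GFP cell wells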
eIF4H inh: human eIF4H binding inhibitors, primary screen, translation initiation inhibitor project, biochemical, uHTS, fluorescence polarization. eIF4H fluorescence polarization binding assay. inhibition, % at 35 µM. 290,000 tested, 0.94% active;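 active means 50% or more with normal probe brightness, or confirmed in later tests; about a fifth of its hits are not listed in these tables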;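 further: calls also rest on retests at 20 µM and on dose response follow-up; 0% = protein and probe with vehicle and 100% = probe without protein; strong numbers were not always called active; many hits fall short of the cut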
eIF4H inh retest: also measured in eIF4H inh; calls as there; inhibition, %; compound at 20 µM; confirmation average;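 mean of two retest wells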
PABP polyA inh retest: further read-out of PABP polyA inh, marked with its call; inhibition, %; compound at 20 µM; confirmation repeats;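 mean of two retest wells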
MT1-MMP act inh RFP: second read-out of MT1-MMP act inh, no call of its own (marks repeat the call); RFP signal change, %; measured here: RFP expression control read;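 0 = vehicle wells; hits needed this value within 50% of zero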
* = called active by the depositor; i = inactive; · = not tested or not shown. Rows are unselected. Share with any hit: about 2.9%.

SMILES | Rce1 inhib | CSC inhib | PABP polyA inh | Yeast UUG start | HIV Env fusion | MT1-MMP act inh | MT1-MMP act inh RFP | eIF4H inh | others
CCc1cccc(CC)c1NC(=O)COC(=O)CC1c2ccccc2CCN1S(=O)(=O)c1ccccc1 (stereo unspecified) | i | 16 | 0 | 4 | -11 | -15 | -8 | 3
Cc1cc2ncc(C(N)=O)cn2n1 | i | -12 | 37 | · | 14 | 2 | -1 | -4
CCC(C)Cn1c(S(=O)(=O)O)nc2ccccc21 (stereo unspecified) | i | -18 | -5 | -2 | · | 4 | 3 | -2
CCOC(=O)c1ccc(N2C(=O)c3n[nH]c(C)c3C2c2ccc(OC)cc2OC)cc1 (stereo unspecified) | · | -2 | -5 | -9 | -89 | -6 | -10 | -6
COc1ccc(-c2nc3c4ccccc4ccn3c2CC2CCCCC2)cc1OC | · | · | · | 2 | -178 | -6 | 0 | ·
CC(OC(=O)CN(C)S(=O)(=O)c1ccc(Cl)cc1)C(=O)Nc1ncc(Cl)cc1Cl (stereo unspecified) | i | -9 | -6 | -11 | · | 3 | 1 | 3
COC(=O)C1=CNC=C(C(=O)OC)C1c1ccc(Cl)cc1 | i | 1 | -16 | -9 | -102 | -11 | -6 | 7
Cc1csc2nc(O)c(C(=O)NCCC3=CCCCC3)c(=O)n12 | i | -13 | · | -14 | -2 | 0 | -9 | ·
COc1nc(OC)nc(Oc2ccc(Cl)cc2[N+](=O)[O-])n1 | i | -7 | 3 | · | -4 | 5 | 1 | 0
CC(=O)Nc1ccc(S(=O)(=O)N2CCCN(S(=O)(=O)c3ccc(NC(C)=O)cc3)CC2)cc1 | i | · | 8 | -17 | 7 | 5 | 2 | 2
COc1ccc(CNS(=O)(=O)NCc2ccc(C)cc2)cc1 | i | -4 | 5 | -5 | -2 | -1 | 2 | -12
CCC1=NC(c2ccc(OC)cc2)N(O)C1(C)C (stereo unspecified) | i | 1 | 0 | -9 | · | 7 | 6 | 5
O=C(c1ccc2c(c1)OCO2)N1CCN(c2ccccn2)CC1 | i | 17 | -2 | -14 | 2 | 2 | 5 | 3
C=CCn1c(SCC(=O)NC2CCCc3ccccc32)nnc1-c1ccncc1 (stereo unspecified) | i | 35 | -9 | 0 | 12 | 0 | -2 | 12
COCCN(C(=O)c1ccc(N(C)S(=O)(=O)c2ccc(C)cc2)cc1)c1c(N)n(CC(C)C)c(=O)[nH]c1=O | · | · | · | -4 | 14 | -2 | 3 | ·
CSc1ncc(CN2CCCC(C(=O)c3ccc(C(C)(C)C)cc3)C2)cn1 (stereo unspecified) | i | 33 | -15 | · | 7 | 0 | 0 | 0
COc1cc(C(=O)NCCC(=O)NCCCN2CCCCC2C)cc(OC)c1OC (stereo unspecified) | i | -7 | -16 | -8 | · | -1 | 0 | -13
Cc1cc(CNC(=O)Cc2ccccc2)c2ccccc2n1 | i | 7 | 5 | 1 | 0 | 5 | 0 | 9
N/C(=N\OC(=O)CC1CCCCC1)c1ccc(Cl)cc1 | · | -3 | 0 | -20 | 6 | 0 | -1 | -3
Cc1ccc(NC(=O)CCC(=O)OCC(=O)c2ccc(Oc3ccc([N+](=O)[O-])cc3)cc2)c(C)c1 | i | -3 | -14 | -14 | -15 | 2 | -5 | 2
CC(C)(C)C(O)(CC#CCN1CCCC1)c1ccccc1 (stereo unspecified) | i | -9 | 4 | -4 | 41 | -1 | 4 | -14
CCOC(=O)c1cnn(Cc2ccc(C)cc2)c1N | i | -13 | 2 | -13 | 0 | · | · | -7
Cc1cnc(C(=O)OCC(=O)N2CCC(C)CC2)cn1 | · | 3 | · | -1 | · | -2 | 0 | ·
CN(CC(=O)Nc1ccc(F)c(F)c1F)C(=O)C1=COCCO1 | i | 10 | -8 | -10 | -18 | -1 | 3 | -6
Cn1c(N)c(C(=O)CSc2nnnn2-c2ccccc2)c(=O)n(C)c1=O | i | -1 | 20 | -10 | 2 | -1 | -1 | -3
O=S(=O)(c1ccc(OCC(O)CN2CCC(Cc3ccccc3)CC2)cc1)N1CCOCC1 (stereo unspecified) | i | 20 | -4 | · | · | 4 | 4 | 0
COc1cc(OC)nc(Oc2ccccc2C(=O)Oc2ccc(Cl)cc2)n1 | i | 2 | 9 | -4 | · | 6 | 3 | 0
COc1ccc(Cl)cc1N1CC(c2nc3ccccc3[nH]2)CC1=O (stereo unspecified) | i | -1 | 3 | -15 | -3 | 4 | 7 | 4
O=C(COc1ccc2c3c(c(=O)oc2c1)CCC3)Nc1ccc(CN2CCOCC2)cc1 | i | -19 | -2 | -17 | -19 | 2 | -2 | 0
COc1ccccc1C(CNC(=O)c1cccc(S(=O)(=O)Nc2ccc(C)cc2)c1)N(C)C (stereo unspecified) | i | -14 | 7 | 1 | -20 | 2 | 4 | 12

Reprinted at random: two records from the list, in no set order.
SMILES | Rce1 inhib | CSC inhib | PABP polyA inh | Yeast UUG start | HIV Env fusion | MT1-MMP act inh | MT1-MMP act inh RFP | eIF4H inh | others
CCC1=NC(c2ccc(OC)cc2)N(O)C1(C)C (stereo unspecified) | i | 1 | 0 | -9 | · | 7 | 6 | 5
Cc1cc(CNC(=O)Cc2ccccc2)c2ccccc2n1 | i | 7 | 5 | 1 | 0 | 5 | 0 | 9

The results go on:
SMILES | Rce1 inhib | CSC inhib | PABP polyA inh | Yeast UUG start | HIV Env fusion | MT1-MMP act inh | MT1-MMP act inh RFP | eIF4H inh | others
CCC(C(=O)Nc1ccccc1Cl)n1nc(C)c2c(C)n(-c3ccccc3)nc2c1=O (stereo unspecified) | i | -5 | -1 | -11 | -2 | 0 | -4 | -10
Cc1cc(NC(=O)CN2C(=O)NC(C)(CCc3ccccc3)C2=O)no1 (stereo unspecified) | i | -17 | 7 | -14 | 13 | 3 | 0 | -5
Cc1ccccc1NC(=S)NC1(C)CCS(=O)(=O)C1 (stereo unspecified) | i | 10 | -6 | · | 1 | 1 | 3 | -2
Cc1[nH][nH]c(=O)c1C | · | -6 | · | -8 | 3 | 2 | 3 | ·
Cc1cc(SCC(=O)OCC(=O)c2c(N)n(C)c(=O)n(C)c2=O)c(C)cc1Br | i | -10 | -6 | -2 | 3 | 2 | 4 | -5
O=C(O)c1ccc(/C=N/NC(=O)c2cc(-c3ccc4c5c(cccc35)CC4)n[nH]2)cc1 | i | -3 | -7 | -11 | -24 | -3 | 3 | 35
CC(=O)c1ccc(NS(=O)(=O)c2ccc(N/C=C/C(=O)c3ccc(F)cc3)cc2)cc1 | i | 9 | -2 | · | -15 | 3 | -7 | -4
COc1cccc(NC(=O)N2CCCC(C(=O)NC3CCCCC3C)C2)c1 (stereo unspecified) | i | · | -4 | -8 | 10 | 2 | -2 | -3
CCOc1ccc(/C=N/NC(=O)c2[nH]ncc2Br)c(O)c1 | · | 87* | -7 | · | -314 | -6 | -10 | 9
CC1CCc2cc(F)ccc2N1C(=O)CSc1nnc2c(n1)[nH]c1ccccc12 (stereo unspecified) | i | -6 | 13 | · | -3 | 0 | -9 | -6
CC(=O)NC(CCCCNC(=S)NC1CCCCC1)C(=O)O (stereo unspecified) | · | -7 | -3 | · | -4 | -2 | 6 | -9
CCC(C(=O)NC1CCCCCC1)n1nc(C)n2c(cc3occc32)c1=O (stereo unspecified) | i | 4 | -7 | -9 | 0 | -1 | 2 | -9
Cc1ccccc1C(=O)Nc1ccc(C(=O)N/N=C/c2ccccn2)cc1 | · | -14 | 2 | -16 | -5 | 3 | 3 | -18
Nc1nnc(SCC(=O)Nc2cccc(S(=O)(=O)N3CCOCC3)c2)s1 | i | -7 | · | -28 | -14 | 3 | 2 | ·
Clc1ccc(OCCCc2nc(-c3ccncc3)no2)c(Cl)c1 | i | -15 | -14 | -18 | -20 | 5 | 6 | -10
O=C(O)c1ccc(N2C(=O)c3ccccc3C2=O)cc1[N+](=O)[O-] | · | · | · | -8 | -22 | 10 | 8 | ·
Fc1cccc(/C=N/N=C/c2cccc(F)c2)c1 | i | 3 | -10 | · | -3 | 2 | 0 | 1
COc1cccc(-c2cccc3c2NC(=O)C3(C)Cc2cccc(F)c2)c1 (stereo unspecified) | · | · | · | 12 | 11 | -3 | -6 | ·
CC/C(=N\O)c1c(O)c2c(n(-c3ccccc3)c1=O)CCCC2 | i | 6 | 105 | · | 25 | -4 | 2 | 4 | eIF4H inh retest=-5;PABP polyA inh retest=7
COc1ccc(OC)c(S(=O)(=O)N2CCN(Cc3ccccc3)CC2)c1 | i | -6 | -1 | -32 | 12 | -2 | -1 | 18
CN(Cc1ccccc1)c1ccc(C(CC(N)=O)NC(=O)c2ccccc2)cc1[N+](=O)[O-] (stereo unspecified) | i | 7 | -8 | -13 | 24 | 2 | -15 | -17
CC1(C(=O)Nc2cccc(Oc3ccccc3)c2)CCN1Cc1ccccc1Cl (stereo unspecified) | · | · | · | -27 | 15 | -7 | -7 | ·
O=C(COC(=O)c1ccc(Cl)cc1O)Nc1cccnc1Cl | i | · | -8 | · | -7 | 0 | 8 | -5
CNc1ccc(-c2cccc(C#N)c2)cn1 | · | · | · | -9 | -58 | -2 | 3 | ·
Cc1ccc(NC(CNS(=O)(=O)c2ccc(Cl)cc2)c2ccccc2)cc1 (stereo unspecified) | · | -1 | 8 | 19 | · | 0 | -9 | -8
O=C(O/N=C(\c1ccccc1)c1ccccn1)c1cccc2ccccc12 | i | -6 | 12 | · | · | 2 | 1 | -5

Structures listed so far that have an NH in an aromatic ring, in the order listed:
SMILES | Rce1 inhib | CSC inhib | PABP polyA inh | Yeast UUG start | HIV Env fusion | MT1-MMP act inh | MT1-MMP act inh RFP | eIF4H inh | others
CCOC(=O)c1ccc(N2C(=O)c3n[nH]c(C)c3C2c2ccc(OC)cc2OC)cc1 (stereo unspecified) | · | -2 | -5 | -9 | -89 | -6 | -10 | -6
COCCN(C(=O)c1ccc(N(C)S(=O)(=O)c2ccc(C)cc2)cc1)c1c(N)n(CC(C)C)c(=O)[nH]c1=O | · | · | · | -4 | 14 | -2 | 3 | ·
COc1ccc(Cl)cc1N1CC(c2nc3ccccc3[nH]2)CC1=O (stereo unspecified) | i | -1 | 3 | -15 | -3 | 4 | 7 | 4
Cc1[nH][nH]c(=O)c1C | · | -6 | · | -8 | 3 | 2 | 3 | ·
O=C(O)c1ccc(/C=N/NC(=O)c2cc(-c3ccc4c5c(cccc35)CC4)n[nH]2)cc1 | i | -3 | -7 | -11 | -24 | -3 | 3 | 35
CCOc1ccc(/C=N/NC(=O)c2[nH]ncc2Br)c(O)c1 | · | 87* | -7 | · | -314 | -6 | -10 | 9
CC1CCc2cc(F)ccc2N1C(=O)CSc1nnc2c(n1)[nH]c1ccccc12 (stereo unspecified) | i | -6 | 13 | · | -3 | 0 | -9 | -6

Screening results deposited in PubChem by several laboratories.
